# Compound activity from PubChem BioAssay.
# KCNQ2 enhance: potentiators of rat KCNQ2 potassium channel; AID 2239, 2010; Potassium voltage-gated channel subfamily KQT member 2 (Rattus norvegicus), O88943; B-score at 10 µM; actives 0.54% (n = 310,000); CHO-K1 KCNQ2, FluxOR thallium flux fluorescence; stronger effect = higher value;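 active means fluorescence ratio B-score at least 3 SD of library B-scores, with initial fluorescence B-score within 3 SD, cut at about 5.3 in these data; same plate scores as AID 2156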;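 further: B-score of peak minus minimum over baseline fluorescence ratio after K+ and Tl+ stimulus; positive B-score means potentiation of KCNQ2 with more thallium influx and brighter signal; only the inactives scoring about 0 or higher are listed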
# Target sequence (O88943 whole entry, looked up): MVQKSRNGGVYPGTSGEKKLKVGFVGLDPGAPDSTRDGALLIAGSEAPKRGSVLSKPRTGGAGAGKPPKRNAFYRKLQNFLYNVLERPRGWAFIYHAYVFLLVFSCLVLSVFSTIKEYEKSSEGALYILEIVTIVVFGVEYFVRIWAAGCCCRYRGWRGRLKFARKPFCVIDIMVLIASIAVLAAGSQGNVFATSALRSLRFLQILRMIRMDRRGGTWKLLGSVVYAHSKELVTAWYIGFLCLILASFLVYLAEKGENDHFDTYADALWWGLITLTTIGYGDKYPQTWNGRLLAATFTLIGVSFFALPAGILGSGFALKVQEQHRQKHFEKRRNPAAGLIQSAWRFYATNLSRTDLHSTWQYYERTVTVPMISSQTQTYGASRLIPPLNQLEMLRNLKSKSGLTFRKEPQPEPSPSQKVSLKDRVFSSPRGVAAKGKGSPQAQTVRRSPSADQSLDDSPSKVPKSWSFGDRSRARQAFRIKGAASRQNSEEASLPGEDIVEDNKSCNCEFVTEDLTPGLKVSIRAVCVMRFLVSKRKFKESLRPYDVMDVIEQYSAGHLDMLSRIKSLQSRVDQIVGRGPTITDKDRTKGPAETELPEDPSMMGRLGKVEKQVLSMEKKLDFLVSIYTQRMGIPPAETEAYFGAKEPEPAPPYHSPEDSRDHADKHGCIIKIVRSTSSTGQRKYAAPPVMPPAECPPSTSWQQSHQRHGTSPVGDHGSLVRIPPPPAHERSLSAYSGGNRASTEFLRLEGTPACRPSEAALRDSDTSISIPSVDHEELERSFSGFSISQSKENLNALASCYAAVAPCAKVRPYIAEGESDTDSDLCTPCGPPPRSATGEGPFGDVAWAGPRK
# KCNQ2 enhance baseline: further read-out of KCNQ2 enhance, marked with its call; B-score; compound at 10 µM; measured here: initial fluorescence intensity artifact check;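 brightness before thallium and not channel activity; 0 = typical well and far values either way flag optical interference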
# * = called active by the depositor. A portion of the library; rates above refer to the full screens.
SMILES,KCNQ2 enhance,KCNQ2 enhance baseline
Cn1c(NC(=O)CCc2ccccc2)cc(=O)n(C)c1=O,1.71,-0.61
COc1cc(/C=N/NC(=O)c2cc(-c3ccccc3OC(C)C)nc3ccccc23)ccc1O,2.17,1.54
COc1cccc(NC(=O)c2cncs2)c1,2.92,-1.45
COC(=O)c1c(NC(=O)C2CC=CCC2C(=O)O)sc(C(N)=O)c1C (stereo not drawn),0.02,2.07
Cc1nn(C(C)CC(=O)O)c(C)c1C (stereo not drawn),0.13,0
Cc1ccc(C(=O)c2oc3ccccc3c2NC(=O)c2cc(-c3cc(C)ccc3O)n[nH]2)cc1,0.09,1.95
O=C(CCc1nc2sc3c(c2c(=O)[nH]1)CCCC3)NCCc1ccccc1,0.21,-0.11
OC(COCCC12CC3CC(CC(C3)C1)C2)CN1CCCC1 (stereo not drawn),1.04,-0.77
O=C(Nc1nc(-c2cc(Cl)sc2Cl)cs1)c1ccc(Br)s1,0.46,0.44
COc1ccc(CC2NCCC3(O)CCCCC23)cc1 (stereo not drawn),2.71,-0.04
Cc1ccc(NC(=O)COc2ccc(-n3ccnc3)cc2)cc1Cl,0.99,-0.16
CCN(CC)CCn1c(=S)[nH]c2cc(Cl)ccc2c1=O,0.55,-0.43
N#C/C(=C\c1cccnc1)c1nc2ccccc2[nH]1,0.6,0.02
CCNC(=S)N1CCC(c2nc3ccccc3s2)CC1,0.37,0.25
O=C(Nc1cccc(S(=O)(=O)N2CCCCCC2)c1)C1CCC1,0.87,-0.8
O=Cc1c(N2CCC3(CC2)OCCO3)nc2ccccn2c1=O,0.42,-1.04
CC(=O)c1cccc(NC(=O)c2ccc(OC3CSC3)cc2)c1,0.29,0.52
CC(=O)N=c1c(C#N)cc2c(=O)n3cccc(C)c3nc2n1CCCOC(C)C,0.36,1.62
COc1ccc(-c2nc(CCNC(=O)c3ccc(Br)o3)cs2)cc1,0.53,-0.29
CN(Cc1ccco1)S(=O)(=O)c1cc(F)ccc1CN1C(=O)c2cccnc2C1=O,1.17,0.69
COc1ccc(C2=NN(C(=O)CN3CCCC3)C(c3ccc(OC)cc3)C2)cc1 (stereo not drawn),0.09,1.35
N#CCCN(Cc1cccs1)C(=O)Nc1ccccc1,1.51,2.2
O=C1C=C(NNC(=O)c2ccccc2Br)CCC1,0.8,-1.05
CCS(=O)(=O)c1ccc2oc(=O)c(/C=C(\O)c3ccc(Cl)cc3)nc2c1,0.1,-0.24
CC(C)CC(=O)N1CCN(Cc2ccc(C(F)(F)F)cc2)CC1,0.56,-1.68

# Going on with the list.
SMILES,KCNQ2 enhance,KCNQ2 enhance baseline
CN(CCC#N)C(=O)CC(Cc1ccccc1)C1CCOC(C)(C)C1 (stereo not drawn),0.11,-0.06
O=C(O)Cc1c(C(=O)O)nnn1-c1cccc(C(F)(F)F)c1,0.89,0.34
Cc1ccc(CNCC(O)c2ccccc2)s1 (stereo not drawn),0.59,0.39
CCC(=O)Oc1ccc(C(=O)Nc2cccc(NC(=O)c3ccco3)c2)cc1,1.12,-1.17
CC(c1ccccc1)c1nnc(NC(=O)c2ccc3c(c2)OCO3)s1 (stereo not drawn),0.66,-0.52
COc1ccc(N2C(=O)/C(=C/N(C)C)NC2=S)cc1,1.16,-1.22
Cc1cc(SCn2nnc3ccccc3c2=O)nc2ccccc12,0.24,-0.79
COc1ccc2[nH]c3c(NCCCN4CCCC4=O)ncnc3c2c1,1.93,0.43
NS(=O)(=O)c1ccc(CCNC(=O)c2ccc(CS(=O)(=O)c3ccc(Br)cc3)o2)cc1,0.92,-0.06
CCC(C)(C)NC(=O)C(c1ccccn1)N(C(=O)c1csnn1)c1ccc(C)cc1 (stereo not drawn),0.92,-2.83
CCC1CCCCN1C(=O)COc1ccc2c(c1)OCO2 (stereo not drawn),0.05,-0.02
Cc1ccc(/C=C/C(=O)O)cc1S(=O)(=O)NCCCC(=O)O,0.01,-0.39
N/C(=N\OC(=O)c1ccc([N+](=O)[O-])cc1)c1ccccn1,0.31,-0.18
Cc1cccc(NC(=O)CSc2nnc(NC(=O)c3ccco3)s2)c1,1.06,-0.62
c1csc(CSc2nnc3sc4ccccc4n23)c1,0.5,-0.47
COc1ccc(Nc2nc3ccccc3c(=O)s2)c(OC)c1,0.34,-2.7
Cc1cccc(C(=O)Nc2nnc(-c3ccncc3)o2)c1,0.71,-0.21
CC(=O)N1CCc2cc(S(=O)(=O)NC(Cc3ccccc3)C(=O)NCCN3CCCCC3C)ccc21 (stereo not drawn),0.9,-0.67
Cc1ncc(CO)c2c1Oc1nc(-c3ccccc3)nc(SCC(=O)N3CCCCC3)c1C2,0.31,1.45
CC(=O)Nc1ccccc1OC(C)C(=O)N1CC(C)CC(C)C1 (stereo not drawn),1,-0.02
COc1cccc(NC(=O)C2C3C=CC4(O3)C2C(=O)N(C2CC2)C4C(=O)NC2CCCCC2C)c1 (stereo not drawn),0.8,-0.31
CCOc1ccccc1C(=O)NCC(=O)OCCCOC(=O)CNC(=O)c1ccccc1OCC,1.06,-0.07
CC(C)c1cc(-c2cc(C(=O)Nc3ccccc3)on2)nc(NCC2CC2)n1,0.27,1.4
COc1ccc(CCC(=O)NNC(=S)NCc2ccc(F)cc2)cc1,0.22,-0.97
COc1ccc(C(C)=O)cc1CSc1nnc(-c2ccncc2)o1,1.21,0.37

# (list continues)
SMILES,KCNQ2 enhance,KCNQ2 enhance baseline
O=C(CCc1nnc(CCCCc2ccccc2)o1)N1CCCC(O)C1 (stereo not drawn),0.73,-0.42
COC(=O)C1ON2OC(C(=O)OC)C(C(=O)OC)C2C1CC(C)=O (stereo not drawn),1.29,-0.77
Cc1ccc(-c2nnc(N)o2)cc1,1.56,-1.7
CCCC1=[N+](CC(=O)c2ccc(C)cc2)CCn2cccc21,0.15,-1.82
Cc1c(NC(=O)C23CC4CC(CC(C4)C2)C3)c(=O)n(-c2ccccc2)n1C,0.47,-1.51
CCN(CC(=O)NC1CCCCCC1)S(=O)(=O)c1ccccc1,0.02,0
O=C(NCC(F)(F)F)Nc1ccccn1,0.58,0.7
COc1ccc(CCNC(=S)NC2CCN(Cc3ccccc3)CC2)cc1OC,1.44,-0.34
O=C(Cn1c(-c2ccccn2)nc2ccccc21)NCCN1CCOCC1,0.97,0
COc1ccccc1CN1CC(C(=O)NCc2cc(C(C)C)no2)CCC1=O (stereo not drawn),1.43,0.97
O=C1/C(=C/c2ccccc2O)SC(=S)N1Cc1cccnc1,0.67,1.78
O=C(OCC(=O)N1CCCC1)c1cccc(Br)c1,1.56,-0.06
Cc1cccc(NC(=O)Nc2cnccn2)c1C,0.89,-0.18
O=c1cc(O)c2sc(Nc3cccc(C(F)(F)F)c3)nc2[nH]1,2.15,-0.18
NC1=NC(c2ccc(Cl)cc2)n2c(nc3ccccc32)N1 (stereo not drawn),2.64,-0.09
Cc1no[n+]([O-])c1COc1ccc(/C=N/n2nnnc2N)cc1,0.47,-0.04
COc1ccc(CN2CCN(C3CCC3)CC2CCO)cc1C (stereo not drawn),0.3,-0.04
COc1ccc2oc(=O)c(-c3nc4ccccc4o3)cc2c1,0.6,-0.05
Cc1ccc(OCc2cc(C(=O)N3CCC(C(O)C(C)C)CC3)no2)cc1C (stereo not drawn),0.26,-1.77
O=C(CCC(=O)N1CCOc2ccccc21)NC1CCN(Cc2ccccc2)CC1,0.68,-0.94
CC1CCN(C(=O)COc2ccc(S(=O)(=O)N3CCCC3)cc2)CC1,0.51,0.12
CN(C(=O)COC(=O)c1cccnc1Nc1cccc(C(F)(F)F)c1)C1CCS(=O)(=O)C1 (stereo not drawn),1.37,0.7
Cc1cc(Oc2ccc(C#N)cc2)nc(NCc2ccccc2)n1,2.04,-0.01
O=C(COC(=O)c1ccccc1F)c1ccc(-n2nncc2-c2ccco2)cc1,0.94,-2.95
Cc1sc(NC(=O)CCC(=O)O)c(C#N)c1C,0.02,0.63

# Ordered by molar mass (falling): part of the list above
SMILES,KCNQ2 enhance,KCNQ2 enhance baseline
NS(=O)(=O)c1ccc(CCNC(=O)c2ccc(CS(=O)(=O)c3ccc(Br)cc3)o2)cc1,0.92,-0.06
O=C(Nc1nc(-c2cc(Cl)sc2Cl)cs1)c1ccc(Br)s1,0.46,0.44
O=C(CCC(=O)N1CCOc2ccccc21)NC1CCN(Cc2ccccc2)CC1,0.68,-0.94
COc1ccc(-c2nc(CCNC(=O)c3ccc(Br)o3)cs2)cc1,0.53,-0.29
CC(=O)N=c1c(C#N)cc2c(=O)n3cccc(C)c3nc2n1CCCOC(C)C,0.36,1.62
CCS(=O)(=O)c1ccc2oc(=O)c(/C=C(\O)c3ccc(Cl)cc3)nc2c1,0.1,-0.24
O=C(COC(=O)c1ccccc1F)c1ccc(-n2nncc2-c2ccco2)cc1,0.94,-2.95
COc1ccccc1CN1CC(C(=O)NCc2cc(C(C)C)no2)CCC1=O (stereo not drawn),1.43,0.97
CCC(=O)Oc1ccc(C(=O)Nc2cccc(NC(=O)c3ccco3)c2)cc1,1.12,-1.17
COC(=O)C1ON2OC(C(=O)OC)C(C(=O)OC)C2C1CC(C)=O (stereo not drawn),1.29,-0.77
CN(CCC#N)C(=O)CC(Cc1ccccc1)C1CCOC(C)(C)C1 (stereo not drawn),0.11,-0.06
CC(=O)Nc1ccccc1OC(C)C(=O)N1CC(C)CC(C)C1 (stereo not drawn),1,-0.02
c1csc(CSc2nnc3sc4ccccc4n23)c1,0.5,-0.47
COc1ccc2oc(=O)c(-c3nc4ccccc4o3)cc2c1,0.6,-0.05
Cc1cccc(NC(=O)Nc2cnccn2)c1C,0.89,-0.18

# Next results follow:
SMILES,KCNQ2 enhance,KCNQ2 enhance baseline
CCOC(=O)c1c(CN2CCN(C)CC2)n(-c2ccccc2)c2cc(Br)c(O)cc12,1.63,-0.51
O=c1oc2c3c(nn2c2ccccc12)CCCC3,0.45,-0.88
CC(C)OCC(O)CSc1ccccn1 (stereo not drawn),0.02,0.03
CN1C(=O)[C@H]2[C@@H](C3CC3)N3C(=O)CN(CCO)C(=O)[C@@]3(Cc3ccccc3)[C@H]2C1=O,0.57,0.99
Cc1oc(-c2ccccc2F)nc1CS(=O)CC(=O)NC1CC1 (stereo not drawn),0.06,-1.11
Cc1nn(-c2ccccc2)c2nc(C(F)(F)F)[nH]c(=O)c12,0.53,0.17
O=C(CC1(C(=O)O)CCCC1)N1CCOCC1,0.48,-0.86
O=C(Nc1ccccc1C(=O)N/N=C/c1ccc(O)cc1)c1ccccc1,1.87,-0.92
Cc1c(Br)c(C(=O)N2CCc3ccccc32)nn1C,0.16,-0.52
Cc1[nH]c2ccccc2c1C(=O)C(=O)NC1CC(=O)N(c2ccc(F)cc2)C1 (stereo not drawn),2.18,0.01
O=C1COc2ccc(S(=O)(=O)N3CCCC3)cc2N1,1.07,0.16
CCNC(=O)COC(=O)C1CCC(=O)N(c2ccc(OC)cc2)C1c1ccc(OC)cc1 (stereo not drawn),1.34,-0.81
COC(=O)c1cc(C)nc2c1C(=O)C(=O)C=C2N1CCOCC1,1.75,-1.4
NC(=S)N/N=C/c1c[nH]c2ccccc12,1.21,-0.32
CC1(C)CN(c2ccc(CC#N)cc2)C1=O,0.14,1.38
Cn1cc(C(=O)Nc2ccc(C#N)cc2)c2ccccc2c1=O,0.03,-0.01
COCCCNc1nc(N)c([N+](=O)[O-])c(Nc2ccccc2OC)n1,0.94,-0.93
O=C(Cn1c(=O)sc2ccccc21)Nc1ccc(S(=O)(=O)N2CCCCC2)cc1,1.01,-0.27
O=C(CN(CC1CCCO1)C(=O)CNS(=O)(=O)c1ccccc1)NCc1ccc(F)cc1 (stereo not drawn),0.66,-0.86
CC1(C)CC(=O)C(N=Nc2cccc(S(=O)(=O)N3CCOCC3)c2)=C(O)C1,0.48,0.94
CNC(=O)C1Cc2ccccc2CN1S(=O)(=O)c1cccs1 (stereo not drawn),0.1,0
COc1ccccc1OCc1ccc(C(=O)N(C)C)o1,0.96,-2.8
Cc1ccc(-n2c(SCC(=O)NCCN3C(=O)CSC3=O)nnc2-c2ccccc2F)cc1,0.15,-0.64
COC(=O)c1cc2oc3ccccc3c2n1CC(=O)N1CCCc2ccccc21,0.96,0.92
COc1cccc(-c2cccc(NC(=O)C3CCN(Cc4ccc(CO)o4)CC3)c2)c1,1.01,0.34

# The list goes on:
SMILES,KCNQ2 enhance,KCNQ2 enhance baseline
CSCC[C@H](N)C(=O)N1CCC(C(=O)N[C@@H](C)C(=O)NCc2ccc(F)cc2)CC1,1.74,-0.84
COc1ccc(/C=N\NC(=O)c2ccccc2)cc1COc1ccc(F)cc1,1.38,-0.66
Cc1nn(-c2ccccc2)nc1C(=O)NNC(=O)c1ccc(C(F)(F)F)cc1,0.69,-1.32
O=C(Nc1ccc2oc(-c3ccccc3Cl)nc2c1)c1cncc(Br)c1,0.72,-0.24
CC(NC(=O)c1cc(F)c(F)c(F)c1F)c1ccc(-n2ccnc2)cc1 (stereo not drawn),0.16,0.33
COc1ccc2cc(C(C)=O)c(=O)oc2c1,0.92,-1.62
O=C(Cc1cccs1)N/N=C/c1ccco1,2.09,-1.47
CCC(=O)c1ccc(N2CCC(C)CC2)c(F)c1,1.75,-0.19
Cc1ccc(S(=O)(=O)Nc2c(C)nc3nc(C)[nH]n3c2=O)c(C)c1,0.3,1.23
Cc1ccc(CNC(=O)CCS(=O)(=O)c2ccc(Br)s2)o1,0.17,0
CCOc1ccc(NC(=O)CN(C)C(=O)c2c(-c3c(F)cccc3Cl)noc2C)cc1OCC,0.44,-1.04
O=C(N1CCOCC1)n1nnc2ccccc21,0.39,0.94
COc1cc(N2C(=O)NC3CC2(C)Oc2ccccc23)cc(OC)c1OC (stereo not drawn),0.64,-0.45
CCOC(=O)N1CCN(S(=O)(=O)c2cc(Cl)c(OC)cc2Cl)CC1,0.11,-0.13
CCCCCCCCCCCC(=O)NC(C(=O)OCC)C(O)c1cccc([N+](=O)[O-])c1 (stereo not drawn),1.92,0.01
O=C(Nc1nnc(C2CCCCC2)s1)c1ccc(Br)s1,1.97,-1.08
COc1cc(NC(=O)c2cc3c(Cl)nc4ccccc4c3s2)cc(OC)c1OC,0.23,0.32
O=C(Cn1nnc(-c2ccc([N+](=O)[O-])cc2)n1)NNC(=O)c1ccccc1,0.32,2
